Mtb hypoxia inh = reduces hypoxia-regulated biosensor signal in M. tuberculosis. AID 1159583. 300,000 compounds, 0.1% hits. fluorescence inhibition, % (concentration not given with the values). M. tuberculosis hypoxia-regulated fluorescent reporter, fluorescence;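 active = 35 to 45% if threefold the growth effect, above 45% if 1.5-fold the growth effect; inactive = the rest, general growth blockers included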;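 note: wells of about 50 µL received 100 nL stock; 0% = vehicle wells and 100% = reference inhibitor wells; whole bacteria with a GFP reporter of the hypoxia response; strong numbers were not always called active; many hits fall short of the cut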
ugtP null kill = growth inhibition of S. aureus ugtP deletion strain | S. aureus RN4220 ugtP deletion, OD600 growth, 16 h; some inactives read as strong as hits | growth inhibition, % (concentration not given with the values) | 330,000 compounds, 0.54% hits | AID 1259309;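 active = z-score under -3 and OD600 up to 0.15 on both plates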;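 note: plate controls were untreated wells for no effect and antibiotic for full effect; wells of about 80 µL received 100 nL stock; the first replicate is given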
PrP UTR inh = suppresses PrP 5' UTR mRNA reporter expression | AID 488862 | 340,000 compounds, 0.35% hits | cell-based PrP 5' UTR mRNA reporter, plate reader | inhibition, % (concentration not given with the values);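 active = every replicate at 50% or more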;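 note: 0 = median of the neutral control wells; tested in H4 reporter cells; numbers are from one replicate; inactives centre near -14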
RN4220 kill = S. aureus RN4220 growth inhibition; AID 1259311; 330,000 compounds, 0.33% hits; OD600, 16 h; inhibition, % (no concentration beside the values);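 active = z-score of -3 or lower and OD600 up to 0.18 on both plates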;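 note: plate controls were untreated cells for no effect and reference antibiotic for full effect; stock transfer was 100 nL into about 80 µL; one replicate is shown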
Autofluor counter = flagged as autofluorescent in microsphere protease counterscreen; compound autofluorescence counterscreen, microsphere flow cytometry; hits give high values; fluorescence intensity (test concentration not listed); 360,000 compounds, 3.1% hits; AID 624483;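 active = at least 3 SD above the mean of all compounds, about 16000 in these data; inconclusive = too few beads counted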;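 note: 100 nL of 1 mM stock went into each well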
BJeLR viability = kills HRASV12-expressing BJeLR cells. BJeLR (HRASV12) viability, CellTiter-Glo ATP luminescence, 48 h; reference of the scale not given here. inhibition, % (concentration not given with the values). 300,000 compounds, 0.17% hits;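 active = replicate mean above 50%; inconclusive = above 50% but judged a plate artefact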;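 note: 50 nL library stock added to about 25 µL; numbers are from one replicate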
Mtb hypoxia inh growth = second read-out of Mtb hypoxia inh, no call of its own (marks repeat the call); growth inhibition, %; measured here: M. tuberculosis growth (absorbance);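 0% = vehicle and 100% = reference antibiotic; read after six days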
Active calls of the source: *; ? = inconclusive; . = not tested or not shown; & = joins results of further samples.

SMILES	Mtb hypoxia inh	Mtb hypoxia inh growth	ugtP null kill	PrP UTR inh	RN4220 kill	Autofluor counter	BJeLR viability
COc1ccccc1NC(=S)N1CCN(c2ccccc2F)CC1	5	10	7	-17	5.4	3726	-4
COC(=O)[C@]1(Cc2ccccc2)N[C@H](CN(C)C(=O)Nc2ccc(Cl)cc2)[C@@H]2C(=O)N(C)C(=O)[C@@H]21	3	5	9	3	2.7	2762	.
Cc1ccc(C)c(NC(=O)c2cc3ccccn3n2)c1	1	5	-8	-112	-2.9	4354	0
Cc1ccc2c(c1)N(CC(=O)NCCCN1C(C)CCCC1C)C(=O)c1cccnc1O2 (configuration not stated)	.	.	-11	5	2.3	6347	-8
Cc1ccc(NC(C(N)=O)c2c(C)[nH]c(=O)[nH]c2=O)cc1 (configuration not stated)	8	9	-7	-24	-2.4	4495	5
O=C(Nc1nc(-c2ccccn2)cs1)c1ccc(-c2ccccc2F)o1	-4	5	35	-18	56	3465	.
O=C1CCCCN1CC(=O)N1CCCC(N2CCN(c3ccccc3F)CC2)C1 (configuration not stated)	2	1	2	-2	2.3	5262	2
O=C(Nc1ccon1)c1ccc(F)c(S(=O)(=O)N2CCCCC2)c1	.	.	.	-17	.	6585	-6
COc1ccc(NS(=O)(=O)c2ccc(C)c(NC(=O)c3ccc(C)c(S(=O)(=O)N4CCOCC4)c3)c2)cc1	4	8	34	-11	-2.8	9591	2
COc1ccc(C)cc1NC(=O)CSc1nnc2ccc(-c3ccncc3)nn12	3	-8	10	-8	-3.5	6270	-7
NC(=O)CSc1nnc(-c2ccc(S(=O)(=O)N3CCCC3)cc2)o1	-2	-3	3	-3	18	10271	2
CCOC(=O)c1c(-c2ccc(C)o2)csc1NC(=S)NC(=O)c1cccs1	10	6	-5	-10	0.0	2109	2
Cc1ccc(S(=O)(=O)CCc2nnc(N)s2)cc1C	7	6	-1	-15	4.5	8789	9
NC(=O)NN=Cc1cccs1	-8	-8	15	.	2.1	.	.
O=C(Nc1ncccn1)c1cccc(F)c1	-10	-11	3	-9	0.3	2832	-5
CSCCC(NC(=O)COc1ccccc1)C(=O)N1CC(C)OC(C)C1 (configuration not stated)	-8	-9	3	-2	1.3	6181	.
Cc1nn(-c2ccccc2)c(N2CCCC2)c1/C=C1\N=C(c2ccc(OC(C)C)cc2)OC1=O	0	7	15	-23	2.5	2726	-9
COc1ccc(-c2nc3c4c(ncn3n2)-c2ccccc2CC42CCCC2)cc1	.	.	.	-24	.	9113	4
Cc1coc2cc3oc(=O)c(CCC(=O)N4CCC(C(=O)O)(c5ccccc5)CC4)c(C)c3cc12	.	.	-3	-12	21	4083	-3
O=C(O)c1ccc(S(=O)(=O)N2CCC(n3nnc4cc(C(F)(F)F)ccc43)CC2)cc1	7	-3	5	-15	5.4	5944	-3

Some of these compounds in order of number of heavy atoms, low to high:
SMILES	Mtb hypoxia inh	Mtb hypoxia inh growth	ugtP null kill	PrP UTR inh	RN4220 kill	Autofluor counter	BJeLR viability
NC(=O)NN=Cc1cccs1	-8	-8	15	.	2.1	.	.
O=C(Nc1ncccn1)c1cccc(F)c1	-10	-11	3	-9	0.3	2832	-5
O=C(Nc1ccon1)c1ccc(F)c(S(=O)(=O)N2CCCCC2)c1	.	.	.	-17	.	6585	-6
COc1ccc(-c2nc3c4c(ncn3n2)-c2ccccc2CC42CCCC2)cc1	.	.	.	-24	.	9113	4
Cc1coc2cc3oc(=O)c(CCC(=O)N4CCC(C(=O)O)(c5ccccc5)CC4)c(C)c3cc12	.	.	-3	-12	21	4083	-3

(further entries)
SMILES	Mtb hypoxia inh	Mtb hypoxia inh growth	ugtP null kill	PrP UTR inh	RN4220 kill	Autofluor counter	BJeLR viability
CC(=O)Nc1ccc(S(=O)(=O)NN=Cc2cccnc2)cc1	-1	6	3	.	1.8	.	.
CN(C)N=Nc1ccc(S(=O)(=O)N2CCSC2C(=O)O)cc1 (configuration not stated)	11	5	4	-21	1.9	25952*	0
Cc1ccc(NC(=O)CS(=O)CC(=O)Nc2ccc(N3CCOCC3)cc2)cc1Cl (configuration not stated)	9	-2	-3	-17	-1.7	9273	6
CCC(C(=O)Nc1ccc(S(=O)(=O)N2CCN(C)CC2)cc1)c1ccccc1 (configuration not stated)	15	-4	14	-17	0.7	4009	2
COc1ccc(C(=O)n2nc(-c3ccco3)nc2SC)cc1OC	-2	0	2	-5	0.5	4447	-15
CCCOc1ccc(C(C(=O)OCCN(CC)CC)c2ccccc2)cc1 (configuration not stated)	.	.	8	13	-0.9	2648	2
N#CC(=Cc1cccs1)C(=O)Nc1nccs1	0	1	-2	.	-0.7	.	.
COc1ccc(C(=O)NC(=S)NCc2ccccc2)cc1	6	-6	10	-17	7.7	10259	-5
O=[N+]([O-])c1cccnc1NCCc1ccccc1	0	-5	7	-28	5.2	2673	-2
O=C(/C=C/c1ccc(Br)cc1)NC(=S)N1C[C@H]2C[C@H](C1)c1cccc(=O)n1C2	.	.	7	-27	7.1	4153	-6
CSCCC(NC(=O)c1ccccc1Cl)C(=O)N1CCC1 (configuration not stated)	-5	-17	8	-12	0.3	5202	-3
COc1ccc(O)c(C(=O)c2cnc3onc(C(C)C)c3c2)c1	10	10	15	-9	7.0	15481	5
CCCCCCOC(=O)C(C#N)c1nc2ccccc2nc1N1CCOCC1 (configuration not stated)	6	9	-6	6	11	19713*	0
COc1cccc(C(=O)NC2CCN(CC(=O)NCc3ccccc3F)CC2)c1	12	-1	4	-27	0.9	4118	-3
COc1ccc(C=NNC(=O)Cc2cc(OC)c(OC)cc2[N+](=O)[O-])cc1	4	7	1	.	3.1	.	.
Cc1cc(Br)c(NC(=O)CN2CCCC2)c(Br)c1	18	6	-2	-33	-0.6	5081	-15
CCN1C(=O)CC(NNC(=O)c2ccccc2)C1=O (configuration not stated)	4	10	6	-23	4.1	.	8
Nc1c(C(=O)NCCc2ccccc2)sc2nc(N3CCOCC3)c3c(c12)CCCC3	-10	2	1	-29	2.2	3212	0
CC1CCN(C(=O)CC2C(=O)Nc3c2c(=O)n(C)c(=O)n3Cc2ccccc2)CC1 (configuration not stated)	8	10	2	.	3.0	11173	-11
CCOc1ccc(C(=O)CCC(=O)N(CC)CC(=O)Nc2c(F)cccc2F)cc1	-8	-2	5	-2	4.8	?	1
O=C(c1ccc(N2CCOCC2)cc1)N1CCCC(Nc2ccccc2)C1 (configuration not stated)	-5	-11	8	-8	2.7	5553	4
O=C1N[C@@H](Cc2ccccc2)C(=O)N2[C@@H]3N(S(=O)(=O)c4ccc(F)cc4)c4ccccc4[C@]3(Br)C[C@@H]12	.	.	.	-14	.	3356	3
COCCNc1nnc(SCC(=O)Nc2cc(C)on2)s1	13	-4	10	-18	7.5	3495	.
OC(CNCC1CCCCC1)COc1ccccc1 (configuration not stated)	5	4	12	-25	2.2	3931	-1
Cc1cc(S(=O)(=O)N2CCCC2)ccc1OCC(=O)Nc1ccccc1	6	0	3	-11	1.7	4562	2
CC1CCc2sc(C(=O)NN=C3CCC(c4ccccc4)CC3)cc2C1 (configuration not stated)	3	4	5	-13	3.6	2803	-8
CCOC(=O)N1CCN(C(=O)c2cc(S(=O)(=O)N3CCc4ccccc43)ccc2OC)CC1	-4	4	5	-13	4.1	?	9
COc1cccc(CNC(=O)COC(=O)c2c(NC(C)=O)sc(C)c2C)c1	-5	-3	-2	-18	5.1	2740	.
C=CCNc1nc(NCc2ccco2)nc(OCC)n1	.	.	1	-5	0.5	4986	-3
COc1ccc(N2CCN(Cc3cc(=O)oc4cc5c(cc34)CCCC5)CC2)cc1	.	.	5	-5	0.1	4209	-11
Cc1cc(-c2nnc3n2N=C(c2ccccc2Br)CS3)n[nH]1	1	-8	2	-12	7.1	4050	1
CCN(CC(=O)Nc1ccccc1-c1ccccc1)Cc1nc2ccccc2c(=O)[nH]1	-4	-2	7	2	4.4	4128	39
C/C(=N\Nc1cccc(C(=O)O)c1)c1ccc2c(c1)Nc1ccccc1S2	.	.	.	-37	.	6225	-4
N#Cc1cc2c([nH]c1=S)CCCC2	-8	2	1	-13	-5.1	2087	12
CC(NC(=O)/C(=C/c1ccc(OC(F)F)cc1)c1ccccc1)c1ccccc1 (configuration not stated)	8	-3	-7	-14	-0.1	1881	-10
CC(C)N1C(=O)S/C(=C/c2ccc3c(c2)n(C)c(=O)n3C)C1=O	11	14	-5	-26	7.4	6256	1
N#C/C(=C\c1ccccc1O)C(=O)Nc1cccnc1	12	-1	-1	-68	1.3	4411	-4
O=C(c1ccccn1)N1CCCC(N2CCN(c3cccc(C(F)(F)F)c3)CC2)C1 (configuration not stated)	-6	-7	-9	-1	-4.9	6109	9
Cc1c(NC(=O)CSc2nnnn2C)c(=O)n(-c2ccccc2)n1C	.	.	1	-13	-1.9	5702	-5
C=CCC(CC(=O)N(CCO)Cc1ccccc1)C(=O)NC(COC(=O)C(CC=C)CC(=O)OC(C)(C)C)Cc1ccccc1 (configuration not stated)	2&3	7&-4	5&6	.	-1.1&-3.2	.	.
Cc1cc(C)c(C#N)c(Nc2ccccc2Cl)n1	6	-3	8	-33	5.7	4872	4
N#CC[N+]1(CCCNP2(=O)C=C(c3ccccc3)OC(c3ccccc3)=C2)CCOCC1	15	-1	8	-22	5.4	3281	-2
CC(C)c1ccc(NC(=O)Cn2nnc(C(=O)NCc3ccco3)c2N)cc1	2	8	1	-15	-2.5	5459	11
CS(=O)(=O)c1ccc(Cl)c(NC(=O)C2CC(=O)N(c3ccc4c(c3)OCCO4)C2)c1 (configuration not stated)	1	10	-2	-2	1.0	6077	9
COC(=O)[C@]1(C)N[C@H](CN(C)C(=O)C2CCCCC2)[C@@H]2C(=O)N(Cc3ccccc3)C(=O)[C@@H]21	2	2	3	-3	3.8	3912	.
FC(F)(F)c1ccc(CNCCc2c[nH]c3ccccc23)cc1	14	6	0	-24	0.1	.	2
C(=NNc1nccc(-c2cccnc2)n1)c1ccccc1	-6	5	-4	.	1.3	.	.
O=S(=O)(CCN1CCOCC1)c1ccccc1	4	3	8	-32	2.7	3333	5
CCC(C)[C@H](NC(=O)OC(C)(C)C)C(=O)NN=Cc1ccc2cc(OC)ccc2n1 (some centres not stated)	-2	-5	2	.	-0.9	.	.
CN1CC(CNC(=O)OCc2ccccc2)CC2c3cccc4c3c(cn4C)CC21 (configuration not stated)	9	2	-2	.	4.2	.	.
COc1cc(OC)c(NC(=O)CN(C)S(=O)(=O)c2ccc(-c3ccc(=O)[nH]n3)s2)cc1Cl	9	-1	8	-1	4.3	4504	-2
FC(F)(F)c1ccc(-n2cn[nH]c2=S)cc1	6	11	3	-13	1.6	5847	-2
O=C(O)CCSc1ccc([N+](=O)[O-])cc1[N+](=O)[O-]	.	.	.	-27	.	3203	5
COc1ccccc1N1CCN(C(=O)c2cc(C(=O)N3CCN(c4ccccc4OC)CC3)cc([N+](=O)[O-])c2)CC1	8	-4	-1	-7	5.2	4412	-18
O=C(c1ccc2c(Cl)c3c(nc2c1)CCCC3)N1CCC(N2CCCCC2)CC1	6	3	-3	-1	2.1	7506	-5
CCOC(=O)C1CCCN(C(=O)Cc2ccc(OC)c(OC)c2)C1 (configuration not stated)	-5	-3	-4	-10	-5.9	7165	1
Cc1ccc2c(c1)N(CC(=O)NCc1cccs1)C(=O)C(C)O2 (configuration not stated)	7	3	-4	-19	2.0	3191	-8
CC1CC(=O)C2=C(C1)Nc1ccccc1SC2c1ccc(F)cc1 (configuration not stated)	-14	-6	25	-2	4.3	2471	6
O=[N+]([O-])c1ccc(-c2ccc(C=NNc3nc(N4CCCCC4)nc(N4CCCCC4)n3)o2)cc1	-16	-5	2	.	0.4	.	.
O=Cc1cn(Cc2ccc(F)cc2Cl)c2ccccc12	5	7	-4	-3	-0.4	7745	9
Other records:
SMILES	Mtb hypoxia inh	Mtb hypoxia inh growth	ugtP null kill	PrP UTR inh	RN4220 kill	Autofluor counter	BJeLR viability
Cc1cccc(-c2cc(=O)c(C(=O)O)cn2-c2ccc(F)cc2F)c1	-3	3	4	2	4.5	3696	5
CCN1C(=O)SC(=Cc2ccc(Oc3ccc([N+](=O)[O-])cn3)c(OC)c2)C1=O	-6	0	-27	.	-3.7	.	.
Nc1ccn(CC(=O)NCCc2ccccn2)c(=O)n1	-2	-7	13	7	21	3250	.
O=C(O)CN1C(=O)/C(=C\c2cccc(OCc3ccc(Cl)cc3Cl)c2)SC1=S	.	.	.	-18	.	3973	3
CC(=O)Nc1nc2c(C)c(Cl)ccc2s1	3	14	-13	-22	1.0	4910	-8

Compound activity deposited in PubChem by several laboratories.
